Bioassay records from PubChem.
HCMV UL50-53 inh = inhibitors of HCMV UL50-UL53 interaction, biochemical, HTRF; inhibition, % (concentration not given with the values); normalized percent inhibition; 0.15% of 190,000 active; HCMV UL50-UL53 nuclear egress complex (human cytomegalovirus);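 active = both replicates at 50% or more, plus weaker picks with an unusually low signal ratio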;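 also: stock transfer was 100 nL into about 20 µL; 0% = negative control wells and 100% = wells with untagged competitor protein; inactives centre near -12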
GIV Gai3 FP = inhibitors of GIV peptide binding to Galpha-i3, primary screen, biochemical, fluorescence polarization, FITC-GIV GBA peptide, rat Galphai3; 90 min; stronger effect = lower value; scaled: aluminum fluoride 0%, vehicle 100%; Guanine nucleotide-binding protein G(i) subunit alpha-3 (Rattus norvegicus), P08753; percent of control (FP), % (test concentration not listed); 0.42% of 210,000 active;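 active = replicate mean at 85% of control or lower, very high polarization wells dropped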;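 also: wells of about 15 µL received 100 nL stock; the first replicate is given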
Target sequence (P08753 whole entry, looked up): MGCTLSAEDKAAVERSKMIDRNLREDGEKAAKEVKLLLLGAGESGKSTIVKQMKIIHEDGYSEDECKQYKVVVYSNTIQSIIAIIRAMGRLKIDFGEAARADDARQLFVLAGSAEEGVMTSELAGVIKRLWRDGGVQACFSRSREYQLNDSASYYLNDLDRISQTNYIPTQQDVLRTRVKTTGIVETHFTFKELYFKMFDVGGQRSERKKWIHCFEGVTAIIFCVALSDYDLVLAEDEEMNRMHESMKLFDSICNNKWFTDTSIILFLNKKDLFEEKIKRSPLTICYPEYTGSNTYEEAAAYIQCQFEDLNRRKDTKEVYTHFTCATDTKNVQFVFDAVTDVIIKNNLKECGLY
Sa growth inh = S. aureus growth inhibition at 42 and 30 °C, primary screen, LtaS inhibitor project, RN4220, two temperatures | OD600, 20 h, 42 °C; stronger effect = lower value | relative growth, % (no concentration beside the values) | 0.53% of 170,000 active;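 active = growth at 42 °C up to 50% and 20 or more points under that at 30 °C, or under 10% at both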;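 also: 300 nL library stock went into each well; scaled to the means of positive and negative controls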
Sa growth inh second temp = second read-out of Sa growth inh, no call of its own (marks repeat the call); relative growth, %; measured here: growth at 30 °C;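 optical density after 20 h as mean of two plates; 100% = untreated growth and lower means inhibition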
* hit, by the source's call; . = not tested or not shown; & = joins results of further samples.

SMILES	HCMV UL50-53 inh	GIV Gai3 FP	Sa growth inh	Sa growth inh second temp
O=C(Cc1ccccc1)NCC(=O)N1CCCCC1	13	108	102	88
COc1ccc(-c2nsc(SCC(=O)N3CCCC3)n2)cc1	.	107	103	95
CCOC(=O)c1sc2ccccc2c1S(=O)(=O)Nc1ccc(C(C)=O)cc1	.	94	86	86
Cc1nc(C)c(-c2ccn[nH]2)o1	-5	100	102	94
CCOc1ccc(S(=O)(=O)N=C2C=CC(=O)C=C2)cc1	-25	.	105	85
CC(C)c1nc(N(C)S(C)(=O)=O)nc(-c2ccc(F)cc2)c1/C=C/[C@@H](O)C[C@@H](O)CC(=O)O	-24	.	96	92
Cc1ccc(Oc2ncccc2NS(=O)(=O)c2cn(C)c(C)n2)c2c1CCC2	-11	104	100	90
CCOC(=O)c1[nH]c(C)c(C(=O)N2CCc3ccccc32)c1C	4	104	117	92
COc1cc(-c2nnc(NC(=O)CS(=O)(=O)c3ccc(Cl)cc3)o2)cc(OC)c1OC	-15	103	63	76
CCCN1C(=O)/C(=N\OCC(=O)N2CCC(C)CC2)c2ccccc21	-101	.	80	86
CCCCn1c(SCc2ccccc2C)nc2ccsc2c1=O	.	106	94	97
Cc1noc(NS(=O)(=O)c2ccc(NC(=O)c3ccncc3)cc2)c1C	.	102	68	66

Six entries from above, bar-delimited.
canonical_smiles | HCMV UL50-53 inh | GIV Gai3 FP | Sa growth inh | Sa growth inh second temp
CCCCn1c(SCc2ccccc2C)nc2ccsc2c1=O | . | 106 | 94 | 97
CCOc1ccc(S(=O)(=O)N=C2C=CC(=O)C=C2)cc1 | -25 | . | 105 | 85
COc1cc(-c2nnc(NC(=O)CS(=O)(=O)c3ccc(Cl)cc3)o2)cc(OC)c1OC | -15 | 103 | 63 | 76
CCOC(=O)c1[nH]c(C)c(C(=O)N2CCc3ccccc32)c1C | 4 | 104 | 117 | 92
CCCN1C(=O)/C(=N\OCC(=O)N2CCC(C)CC2)c2ccccc21 | -101 | . | 80 | 86
COc1ccc(-c2nsc(SCC(=O)N3CCCC3)n2)cc1 | . | 107 | 103 | 95

Next section
SMILES	HCMV UL50-53 inh	GIV Gai3 FP	Sa growth inh	Sa growth inh second temp
Cc1ccc(CNC(=O)c2ccc(-c3nc(CS(=O)(=O)c4ccc(C)cc4)c(C)o3)cc2)cc1	.	104	120	86
Cc1ccc(Cn2c(=O)c(N3CCC(C(=O)NCc4ccc(Cl)cc4)CC3)nc3ccccc32)cc1	2	104	.	.
CC1(C)Cc2ccccc2C(c2sc3nc4c(cc3c2N)CCCCC4)=N1	-5	.	109	90
Brc1ccc(Nc2cc(-c3ccccc3)ncn2)cc1	0	101	.	.
COc1cc(NC(=O)N2CCc3c(sc4c3CCCC4)C2c2ccccc2)cc(OC)c1OC (stereo not drawn)	.	101	63	86
OC1(c2ccccc2)CC2CCC(C1)N2c1ncccn1 (stereo not drawn)	-14	98	91	82
C[C@@]1(C2CCCC2)Cc2cc(OCC(=O)O)c(Cl)c(Cl)c2C1=O	-4&-23	103	.	.
CCCc1cc(=O)[nH]c(SCC(=O)N2CC(=O)Nc3ccccc32)n1	-9	.	92	87
Cc1ccc(N(CC(=O)N2CCN(c3cccc(C)c3C)CC2)S(=O)(=O)c2c(C)nn(C)c2C)cc1	-2	107	81	91
O=C(CSc1nncn1-c1ccccc1)Nc1c(F)c(F)c(F)c(F)c1F	-35	.	128	88
CCOC(=O)c1ccc(-n2c(N)c(C(=O)N3CCCC3)sc2=S)cc1	-55	101	85	81
COc1ccc(CCNc2cc(C)nc3c(C)c(-c4ccc(OC)c(OC)c4)nn23)cc1OC	-18	105	.	.
ON=C1C2CC3CC(C2)CC1C3	-10	104	97	95
O=C(c1ccccc1O)N1N=C(c2cccnc2)CC1(O)C(F)(F)F (stereo not drawn)	-13	101	.	.
CCSc1nc(-c2ccccc2F)nc2c1Cc1c(CO)cnc(C)c1O2	.	104	91	96
CN(C)c1nc2ccc(OCCN3CCCCC3)cc2s1	-17	108	94	90
COc1ccc(O)c(C(=O)c2cnc3nc4ccccc4n3c2)c1	-30	.	76	35
COC(=O)C(Cc1c[nH]c2ccccc12)NC(=O)COc1ccc(Cl)cc1Cl (stereo not drawn)	-7	103	101	79
Cc1c(C(=O)NC(=S)Nc2ccc(C(=O)OC(C)C)cc2)oc2ccccc12	0	100	93	87
CC1=C(C(=O)Nc2nc3ccccc3s2)C(c2ccc(N(C)C)cc2)C2=C(CC(C)(C)CC2=O)N1 (stereo not drawn)	-5	101	.	.
CCCNC(=O)c1ncn2c1C(=O)N(CCC)C(C)(C(=O)NCCC(C)C)C2 (stereo not drawn)	-21	107	.	.
O=C(NC(=S)Nc1ccc(Nc2ccccc2)cc1)c1ccco1	.	100	114	37
O=C(NC1CCCC1)c1ccc(Nc2ccnc(-c3ccc(F)cc3)n2)cc1	12	106	.	.
CCc1ccc(CN2CCc3nc(N4CCN(CC)CC4)ncc3C2)cc1	.	107	99	96

7 consecutive records already listed, for reference:
SMILES	HCMV UL50-53 inh	GIV Gai3 FP	Sa growth inh	Sa growth inh second temp
ON=C1C2CC3CC(C2)CC1C3	-10	104	97	95
O=C(c1ccccc1O)N1N=C(c2cccnc2)CC1(O)C(F)(F)F (stereo not drawn)	-13	101	.	.
CCSc1nc(-c2ccccc2F)nc2c1Cc1c(CO)cnc(C)c1O2	.	104	91	96
CN(C)c1nc2ccc(OCCN3CCCCC3)cc2s1	-17	108	94	90
COc1ccc(O)c(C(=O)c2cnc3nc4ccccc4n3c2)c1	-30	.	76	35
COC(=O)C(Cc1c[nH]c2ccccc12)NC(=O)COc1ccc(Cl)cc1Cl (stereo not drawn)	-7	103	101	79
Cc1c(C(=O)NC(=S)Nc2ccc(C(=O)OC(C)C)cc2)oc2ccccc12	0	100	93	87

Other compounds
SMILES	HCMV UL50-53 inh	GIV Gai3 FP	Sa growth inh	Sa growth inh second temp
CCCOc1ccc(C2C3=C(CC(C)(C)CC3=O)Nc3ccccc3N2C(=O)CC)cc1OC (stereo not drawn)	-14	105	.	.
COC(=O)c1cc2ccsc2n1CC(=O)Nc1ccc(OC)c(OC)c1	1	105	102	86
CC(=O)N(Cc1ccccc1)Cc1cc2cc(C)ccc2n2nnnc12	-17	101	119	83
O=C(NCCN1CCN(Cc2ccccc2)CC1)Nc1ccc(OCc2ccccc2)cc1	-14	107	95	80
COc1ccc(-c2nc3sc(CCNC(=O)c4ccccc4C)c(C)n3n2)cc1	.	100	104	89
O=S(=O)(c1ccccc1)n1nc(-c2ccc(Cl)cc2)nc1NCc1ccccc1	-7	101	104	97
c1ccc(CCC2CCNCC2)cc1	-5	105	62	93
CC(=O)N1c2ccccc2C(=O)C1N1CCN(c2ccc(Cl)cc2)CC1 (stereo not drawn)	.	100	82	90
CC(C)(C)c1ccc(-c2nnc(-c3ccccc3NC(=O)CCC(=O)O)o2)cc1	3	96	80	88
CC1=NNC(=O)C1CC(=O)N/N=C/C=C/c1ccccc1 (stereo not drawn)	-75	102	112	88
COc1ccc2nc(C)sc2c1	10	.	103	105
O=C(c1cccs1)N1CCCc2cc(NS(=O)(=O)c3ccc(F)cc3)ccc21	.	102	91	62

Some of these compounds in order of length of the SMILES, high to low:
SMILES	HCMV UL50-53 inh	GIV Gai3 FP	Sa growth inh	Sa growth inh second temp
O=S(=O)(c1ccccc1)n1nc(-c2ccc(Cl)cc2)nc1NCc1ccccc1	-7	101	104	97
O=C(NCCN1CCN(Cc2ccccc2)CC1)Nc1ccc(OCc2ccccc2)cc1	-14	107	95	80
COc1ccc(-c2nc3sc(CCNC(=O)c4ccccc4C)c(C)n3n2)cc1	.	100	104	89
CC(=O)N1c2ccccc2C(=O)C1N1CCN(c2ccc(Cl)cc2)CC1 (stereo not drawn)	.	100	82	90
c1ccc(CCC2CCNCC2)cc1	-5	105	62	93
COc1ccc2nc(C)sc2c1	10	.	103	105

Further records
SMILES	HCMV UL50-53 inh	GIV Gai3 FP	Sa growth inh	Sa growth inh second temp
CCCN(C(=O)CCc1nc(-c2ccccc2F)no1)c1ccc(OCC)cc1	4	105	105	95
Cc1ccc(N2CCN(C(=O)c3sc4nc5n(c(=O)c4c3C)CCCC5)CC2C)cc1 (stereo not drawn)	.	102	91	79
CC(=O)Nc1ccc2c(COC(=O)Cc3ccc4c(c3)OCCO4)cc(=O)oc2c1	-19	.	72	85
COc1cc(NC(=O)C(NS(=O)(=O)c2ccc3c(c2)CCCC(=O)N3)C(C)C)cc(OC)c1 (stereo not drawn)	.	101	89	93
Cc1ccc(NC(=O)c2snnc2C)cc1	-33	103	99	89
COc1cc(NC(=O)CN2CCCN(S(=O)(=O)c3ccc(F)cc3)CC2)cc(OC)c1	-5	100	99	86
CN1C(=O)/C(=C/c2ccc(N3CCCC3)c(F)c2)C(=O)NC1=S	-9	111	93	77
Cc1ccc(S(=O)(=O)Cc2ccc(C(=O)N3CCN(Cc4ccccc4)CC3)o2)cc1	-8	104	99	82
NC(=O)C1CCN(CC(O)CSc2ccccc2)CC1 (stereo not drawn)	8	112	94	91
O=c1[nH]cc(S(=O)(=O)N2CCC3(CC2)OCCO3)c(=O)[nH]1	5	100	104	95
CCCN(C(=O)Cn1cnc2sc(C)c(S(=O)(=O)N3CCN(c4ncccn4)CC3)c2c1=O)c1cccc(C)c1	-2	106	102	94
Cc1sc2ncc(C(=O)N3CCN(c4ccccc4)CC3)c(=O)n2c1C	-2	107	.	.
Brc1ccc(-c2csc(=NC3CC3)n2N=C2CCCC2)s1	-26	.	84	61
Cc1sc2nc(CN3CCCC3)nc(N3CCC(C(N)=O)CC3)c2c1C	-3	.	108	87
Cc1c(Cl)cccc1NC(=O)c1cc(-c2cccs2)on1	-12	100	105	93
CCOC(=O)CCCn1c(=O)c2cccn2c2ccccc21	.	95	126	97
CCS(=O)(=O)c1nc(S(=O)(=O)c2ccc(C)cc2)c(NCc2ccccc2Cl)s1	4	104	109	99
Cc1cc(C)cc(NS(=O)(=O)c2ccc3c(c2)OCCN3C(=O)c2ccco2)c1	.	103	97	80
O=C(CCC(=O)N1CCSc2ccccc21)Nc1ccc(Cl)cc1	.	106	96	80
CC1CCCC(NC(=O)CSc2ncccc2C(=O)O)C1C (stereo not drawn)	5	.	110	92
COc1ccc2[nH]cc(CCNC(=O)CCc3c(C)nc4c(c3C)c(=O)n(C)c(=O)n4C)c2c1	-19	99	.	.
CC1CCCC(C)N1CCNC(=O)Nc1ccc(Cl)cc1 (stereo not drawn)	.	111	68	71
COC(=O)c1ccc(NC(=O)CC2C(=O)N(c3cccc(F)c3)C(=O)N2CC(C)C)cc1 (stereo not drawn)	-7	97	106	84
O=C(N1CCCCC1)C1(c2ccccc2)CCOCC1	-18	102	75	80
COC(=O)CN(c1ccccc1)S(=O)(=O)c1ccc(OC)cc1	2	102	100	91
COc1ccccc1N1CCN(S(=O)(=O)CCNC(=O)Cc2ccc(Cl)cc2)CC1	.	103	100	89
Cc1cc(C)nc(NS(=O)(=O)c2ccc(NC(=O)c3ccc(N4C(=O)CCC4=O)cc3)cc2)n1	-4	94	91	88
CCOC(=O)Cn1c2ccc(F)cc2c2nc3ccccc3nc21	-20	109	94	95
CC(C)(C)Cc1nc(-c2ccccn2)no1	-11	101	82	86
O=C(Nc1ccccc1C(=O)NCc1ccccc1)c1ccco1	-22	102	119	99
Fc1ccc(C2CCCN2Cc2ccc(F)c(F)c2)cc1 (stereo not drawn)	-32	106	.	.
CCOc1ccc(NC(=O)CC2SC(=O)NC2=O)cc1 (stereo not drawn)	-13	101	.	.
Cc1onc(-c2c(Cl)cccc2Cl)c1C1=NCCO1	-15	103	94	93
Cc1ccc(CN2C(=O)c3[nH]c4ccccc4c3SCC2(C)C(=O)NC2CCCC2)cc1 (stereo not drawn)	-18	102	.	.
CCOC(=O)c1nc2ccccc2n(C(=O)c2cccc(F)c2)c1=O	-53	97	.	.
CS(=O)(=O)NCCn1ccc2ccccc21	-28	97	91	84
Cc1cccc(NC(=O)CSc2nnc3scc(-c4ccccc4)n23)c1	-21	100	105	52
COc1ccc(-c2cc(N)n[nH]2)c(OC)c1	10	99	96	80
CC(C)(C)C(O)(CCc1ccccc1)Cn1cncn1 (stereo not drawn)	-14	.	102	91
Cc1ccc2oc(C(=O)Nc3nc(-c4ccc(F)cc4)ns3)c(C)c2c1	-6	94	95	86
COC(=O)c1cc(/C=C(\C#N)S(C)(=O)=O)cn1-c1ccc(Cl)cc1	8	105	99	110
Cc1ccccc1OCC(=O)N1CCC(c2nc3ccccc3s2)CC1	-26	99	94	63
CCOC(=O)c1c(C)[nH]c(C)c1S(=O)(=O)NCC(=O)N1CCN(c2cccc(C)c2)C(C)C1 (stereo not drawn)	.	103	102	98
CCOc1ccc(C(=O)OCc2cc(=O)n3nc(C4CCCCC4)sc3n2)cc1	.	103	85	93
Cc1nc(-n2nc(C)c(Cl)c2C)sc1C(=O)N1CCN(C)CC1	0	99	.	.
O=C(NCCc1ccccc1Cl)c1ccc(Cn2c(=O)c3cccn3c3cccnc32)cc1	.	109	126	62
CC(C(=O)NCc1ccc2c(c1)OCO2)N(c1ccccc1)S(C)(=O)=O (stereo not drawn)	-11	104	100	80
